VACV Venus inh: qHTS for Stage-Specific Inhibitors of Vaccinia Orthopoxvirus: Venus Reporter Primary qHTS | Potency, µM (series often up to 36.5 µM), for inactives: at the top dose activity change, negative = inhibition, hits mostly inhibitors | AID 720580, 2013 | 330,000 tested, 0.46% active | Vaccinia virus Venus reporter expression, fluorescence; active means well fitted inhibition curve with a large enough effect; inconclusive means small, poorly fitted or top-dose-only effect; inactive means no such curve, though single readings can be large or run the other way; tested in A549 cells; note: nearly all actives have a fitted effect of over 30% in size; inactives centre near -10
VACV mCherry inh: qHTS for Stage-Specific Inhibitors of Vaccinia Orthopoxvirus: mCherry Reporter Primary qHTS; Vaccinia virus mCherry reporter infection, fluorescence; about a quarter of the inactives have no number; Potency, µM (highest dose often 36.5 µM), inactives show at the top dose activity change, negative = inhibition, hits mostly inhibitors; 310,000 tested, 0.63% active; AID 720579, 2013; active = well fitted inhibition curve with a large enough effect; inconclusive = small, poorly fitted or top-dose-only effect; inactive = no such curve, though single readings can be large or run the other way; tested in A549 cells; note: nearly all actives have a fitted effect of over 35% in size; inactives centre near -10
Active calls of the source: *; i = inactive; ? = inconclusive; . = no result given; & = joins results of further samples; [ ] = another dose, or the depositor's remark. % is set by controls: 0 for no effect and ±100 for the full control effect; potency is the fitted concentration of half-maximal effect.

Fields: VACV Venus inh | VACV mCherry inh
CCN(CC(=O)Nc1ccc(NC(C)=O)cc1)CC(=O)Nc1cccc2ccccc12
  -14% | -7%
Cc1cccc(Nc2c3c(nc4nncn24)CCC3)c1C
  -23% | i
CC(=O)Nc1ccc(NC(=O)CCCn2nc(C)c3sc4ccccc4c3c2=O)cc1
  -1% | -13%
COc1cccc(N2CCN(S(=O)(=O)c3cc4c(cc3Cl)NC(=O)CO4)CC2)c1
  -11% | -4%
Cc1ccc(NC(=O)/C(C#N)=N/Nc2ccc(C(=O)O)cc2)c(C)c1
  6% | -2%
COC(=O)c1ncn(C2OC(COC(C)=O)C(OC(C)=O)C2OC(C)=O)n1 (configuration not stated)
  -4% | -11%
COCCN(C(=O)COC(=O)c1ccc2ccccc2c1)c1c(N)n(Cc2ccccc2)c(=O)[nH]c1=O
  -19% | i
Cc1cc(C(=O)NCCc2ccccc2)c2cc(F)ccc2n1
  -6% | -9%
COC(=O)c1c(OCc2ccccc2)cc(=O)n2c1CCN(Cc1cccc(C)n1)CC2
  0% | 0%
CCN=C1SC(C(=O)Nc2cccc(C)c2)CC(=O)N1CC (configuration not stated)
  -9% | -8%
N#Cc1ccc(Oc2ccc(-c3nc4ccccc4nc3-c3ccccc3)cc2)cc1C#N
  -17% | -17%
CCn1c(SCC(=O)OC)nnc1-c1ccc(C)cc1
  -7% | -2%
COc1ccc(S(=O)(=O)N(CCN2CCOCC2)Cc2cc(OC)ccc2OC)cc1
  -2% | -2%
O=C(Nc1ncc2c(n1)-c1ccccc1CC2)C1CC1
  -23% | ?
CN1CC(C#N)C2(O)c3ccccc3CCC2C1 (configuration not stated)
  -10% | -25%

Structural class: the compounds so far containing a cyano group (3)
Fields: VACV Venus inh | VACV mCherry inh
Cc1ccc(NC(=O)/C(C#N)=N/Nc2ccc(C(=O)O)cc2)c(C)c1
  6% | -2%
N#Cc1ccc(Oc2ccc(-c3nc4ccccc4nc3-c3ccccc3)cc2)cc1C#N
  -17% | -17%
CN1CC(C#N)C2(O)c3ccccc3CCC2C1 (configuration not stated)
  -10% | -25%

Additional compounds follow:
Fields: VACV Venus inh | VACV mCherry inh
COc1cc(/C=N\NC(=O)CNC(=O)c2cccc([N+](=O)[O-])c2)ccc1O
  -19% | .
Cc1ccc(Nc2nnc(-c3ccc(C)c(S(=O)(=O)N4CCN(C)CC4)c3)c3ccccc23)c(C)c1
  -14% | -20%
CCOc1ccc(CCNC(=O)C2CCN(c3nn4c(=O)cc(C)nc4s3)CC2)cc1
  -14% | -29%
Cc1ccc(NC(=O)CN2C(=O)CCc3cc(S(=O)(=O)N4CCCCC4)ccc32)cc1C
  -9% | -21%
C#C[C@]1(O)CC[C@H]2[C@@H]3CCC4=Cc5oncc5C[C@]4(C)[C@H]3CC[C@@]21C
  -20% | 0%
C[C@]12CCC3C(C1CCC2=O)[C@H](O)C[C@H]1C[C@@H](O)CC[C@]31C (some centres not stated)
  -7% | -12%
CC1Cc2ccccc2N1C(=O)c1nn(C)cc1Br (configuration not stated)
  -5% | -14%
Cc1ccc(C(=O)NN2C(=O)C3C4c5ccccc5C(c5ccccc54)[C@@H]3C2=O)cc1 (some centres not stated)
  -10% | -14%
Cc1cccc(NC(=O)CSCC(=O)Nc2ccccc2N2CCCCC2)c1
  -4% | ?
Cc1ccc(C(c2c(O)cc(C)n(Cc3ccco3)c2=O)N2CCC(C)CC2)cc1 (configuration not stated)
  -9% | -8%
COC(=O)c1ccccc1NC(=O)c1ccc2nccnc2c1
  -2% | -4%
COc1ccc2c(C)cc(=S)[nH]c2c1
  -16% | -22%
CCCCNC(=O)c1onc(CSc2nc3ccccc3[nH]2)c1C(=O)NCCCC
  -17% | -4%
Cc1cc(NC(=O)c2cc(Cl)ccc2Cl)ccc1-c1cc2ccccc2oc1=O
  -24% | -16%
Cc1cc(F)ccc1NS(=O)(=O)c1ccc(-n2cccn2)cc1
  -1% | -5%

The list goes on:
Fields: VACV Venus inh | VACV mCherry inh
Cc1ccc(C(=O)Nc2cccnc2N2CCN(C)CC2)cc1
  -10% | i
Cc1ccccc1-n1c(SCC(=O)O)nc2sc3c(c2c1=O)CCCC3
  -13% | -16%
CCC1(C)Cc2c(C#N)c(N)sc(=S)c2CO1 (configuration not stated)
  -18% | -8%
CCn1c(-c2ccc(S(=O)(=O)N3CCOCC3)cc2)csc1=Nc1ccc(C)c(Cl)c1
  -23% | -1%
COc1ccc(C(=O)Nc2ccc(O)cc2C(=O)O)cc1
  -6% | -11%
Cc1ncc(CO)c2c1Oc1nc(-c3ccccc3)nc(SCC(=O)N3CCOCC3)c1C2
  3% | -7%
NC(=O)C(c1ccccn1)c1ncc(C(F)(F)F)cc1Cl (configuration not stated)
  -8% | -13%
COc1ccc2c(-c3ccccc3)cc3nnnn3c2c1
  2% | -14%
COc1ccc(C(=O)NCc2cccnc2)cc1S(=O)(=O)N1CCCc2ccccc21
  -13% | -2%
COc1ccc(-c2noc(N3CCC(C(=O)Nc4ccc(F)cc4)CC3)n2)cc1
  -23% | i
O=C(N1CCN(CCO)CC1)N1c2ccccc2C=Cc2ccccc21
  -17% | -3%
COc1ccccc1C1C2=C(CCCC2=O)N(CC(=O)O)C2=C1C(=O)CCC2
  0% | i
Cc1ccc(C)c(NC(=O)CN2C(=O)NC(CCc3ccccc3)C2=O)c1 (configuration not stated)
  9% | -2%
CCS(=O)(=O)N1CCC(C(=O)N2CCN(Cc3ccccc3)CC2)CC1
  1% | 1%
O=C(O)CCCN1C(=O)/C(=C/C=C/c2ccco2)SC1=S
  37%[activator] | -11%

Continued.
Fields: VACV Venus inh | VACV mCherry inh
COc1ccc(CC(=O)OCC(=O)NC2CCCC(C)C2C)cc1 (configuration not stated)
  -5% | -1%
CCOC(=O)CSC1=C(C#N)C(c2ccccc2OCC)C(C#N)C(=O)N1 (configuration not stated)
  -22% | -11%
O=C(N/C=N/OCc1ccc(Cl)cc1Cl)NOCc1c(Cl)cccc1Cl
  -16% | -8%
Cc1cccc(NC(=O)C(C)OC(=O)c2ccccc2NS(=O)(=O)c2cc(C)c(C)c([N+](=O)[O-])c2)c1 (configuration not stated)
  -22% | ?
COC(=O)C1=NN(C(=O)c2ccc(Br)cc2)C(O)(C(C)(C)C)C1 (configuration not stated)
  -15% | ?
CC1CCN(C(=O)c2ccc3c(c2)NC(=O)CN3)CC1
  . | 2%
Cc1ccnc(NS(=O)(=O)c2ccc(NC(=O)c3oc4ccccc4c3C)cc2)n1
  -12% | -17%
COc1cc2c(cc1OC)C(=O)N1[C@H]3c4ccccc4OC[C@@H]3[C@H](c3ccccc3)[C@]1(C)C(=O)N2
  ? | ?
Nc1nc(SCC(=O)Nc2ncc(Cl)cc2Cl)n[nH]1
  -4% | -20%
Cc1nn(C)cc1/C=C1\CCC/C(=C\c2cn(C)nc2C)C1=O
  -20% | ?
CC[C@]12C(=O)N(C)C[C@H]([C@@H]3C(=O)N(C)C(=O)[C@@H]31)N2C(=O)c1ccc(Br)cc1
  -14% | -17%
Cc1cc(=O)[nH]c2[nH][nH]c(=O)c12
  -11% | -14%
CSc1nc(N)nc2c1ncn2CC(=O)NCc1ccc2c(c1)OCO2
  -10% | i
CCOC(=O)CC(NC(=O)c1ccc(C)cc1)c1ccc(C)cc1 (configuration not stated)
  -14% | -16%
CCN(C(=S)Nc1ccc(C(C)=O)cc1)C1CCCCC1
  5% | 5%

The closing 6 entries of the part above are carried over, then new ones follow:
Fields: VACV Venus inh | VACV mCherry inh
Cc1nn(C)cc1/C=C1\CCC/C(=C\c2cn(C)nc2C)C1=O
  -20% | ?
CC[C@]12C(=O)N(C)C[C@H]([C@@H]3C(=O)N(C)C(=O)[C@@H]31)N2C(=O)c1ccc(Br)cc1
  -14% | -17%
Cc1cc(=O)[nH]c2[nH][nH]c(=O)c12
  -11% | -14%
CSc1nc(N)nc2c1ncn2CC(=O)NCc1ccc2c(c1)OCO2
  -10% | i
CCOC(=O)CC(NC(=O)c1ccc(C)cc1)c1ccc(C)cc1 (configuration not stated)
  -14% | -16%
CCN(C(=S)Nc1ccc(C(C)=O)cc1)C1CCCCC1
  5% | 5%
CCCCNC(=O)CCn1c(=O)c2ccccc2n(Cc2cc(C)ccc2C)c1=O
  -3%&-11% | -8%&-10%
Cc1ccc(-n2nc(C(=O)NCc3ccco3)c3c4ccccc4n(C)c3c2=O)cc1
  -27% | -7%
CN(CC(=O)Nc1ccc(F)cc1)c1ccc(S(=O)(=O)N2CCCC2)cn1
  6% | i
CSc1nnc(Cn2c(=O)sc3ccccc32)n1-c1ccccc1
  0% | -4%
O=C(N/N=C/c1ccc(O)c(O)c1)c1ccc(CSc2cccc3cccnc23)cc1
  -9% | -7%
O=C1C(Cc2ccc(O)cc2)NC(=S)N1Cc1ccccc1 (configuration not stated)
  -10% | ?
CC1=C(C(N)=O)C(c2ccccc2)n2nc(-c3cccc(C)c3)nc2N1 (configuration not stated)
  5% | 2%
Cc1ccc(C2C(C(=O)O)c3ccccc3C(=O)N2C)c(C)c1 (configuration not stated)
  -7% | i
CCCCN(CC(=O)Nc1c(C)cccc1CC)C(=O)SCC
  -19% | -20%[1.46 µM]
CN(C)c1ccc(P(=O)(Nc2cccc(C(F)(F)F)c2)N2CCOCC2)c(NC(=O)c2cccs2)c1 (configuration not stated)
  -13% | i
COc1ccc(C(OCC(O)CNCCc2ccc(S(N)(=O)=O)cc2)c2ccc(OC)cc2)cc1 (configuration not stated)
  -28% | i
Cc1c(NS(=O)(=O)c2ccc(Cl)c(C(=O)OCC(=O)NCc3ccco3)c2)c(=O)n(-c2ccccc2)n1C
  -4% | i
COc1ccc(S(=O)(=O)N(C)CC(=O)NCCC2=CCCCC2)cc1C
  -19% | -3%
Cc1ccc(-n2c(=O)c3cccnc3n2CC(=O)Nc2ccc(Br)cc2)cc1C
  4% | -4%
O=C(Cn1cc(C(F)(F)F)cc(Cl)c1=O)NCCc1ccccc1
  0% | -14%

Additional records follow.
| smiles | VACV Venus inh | VACV mCherry inh |
| --- | --- | --- |
| Cc1cccc(C(=O)NC2CCN(CC(=O)Nc3cccc(Cl)c3)CC2)c1 | -16% | -5% |
| CC(=O)Nc1ccc(S(=O)(=O)N(C)CC(=O)Nc2ccccc2N2CCOCC2)cc1 | -4% | . |
| COc1cc(OC)c(C(=O)OCC(=O)NCCC2=CCCCC2)cc1OC | -15% | -19% |
| COc1ccc(OC)c(NC(=O)CSC2=Nc3ccccc3C3=NC(CCC(=O)NC4CCCCC4)C(=O)N23)c1 (configuration not stated) | -10% | -7% |
| O=C1NC(c2ccccc2)=C(c2nc3ccccc3s2)C(c2ccccc2)N1 (configuration not stated) | -23% | -8% |
| CC(C)c1nc2n[nH]c(N)c2c2c1CSC(C)(C)C2 | ? | . |
| COc1cc2c(cc1OC)-c1cc(N3CCCc4ccccc43)nc(=O)n1CC2 | -10% | -18% |
| Cc1ccc(-c2nc3ccccc3n2C(C(=O)NC(C)(C)C)C2CC2)cc1 (configuration not stated) | -5% | 5% |
| Cc1cc(-c2n[nH]c(=S)n2Cc2ccco2)n(C)n1 | -4% | -1% |
| Cc1c(C(=O)O)sc(S(=O)(=O)N2CCN(C(=O)Cc3ccccc3Cl)CC2)c1C(=O)O | -6% | -13% |
| CC(C)Cn1c(=O)c2ccccc2n2c(CCC(=O)N3CCN(c4cccc(Cl)c4)CC3)nnc12 | -20% | -3% |
| O=C(Nc1ccccc1)N1CCC(C(=O)N2CCCC(C(F)(F)F)C2)CC1 (configuration not stated) | -14% | i |
| CNC(=O)NC(=O)C(C)Oc1ccccc1F (configuration not stated) | -1% | -12% |
| CCOC(=O)N(C)c1c(CC)nc2c(OCc3ccccc3)cccn12 | -8% | -28% |
| COCCCn1c(SCc2nnc(-c3ccc(OC)c(OC)c3)o2)nc2ccccc2c1=O | -8% | -9% |
| CCO[C@H]1OC(C(=O)NCc2ccccc2)=C[C@@H](C(C)(C)C)[C@@H]1CCCO | -14% | i |
| CCOc1ccc(C2c3c(oc4ccc(C)cc4c3=O)C(=O)N2CCCN2CCOCC2)cc1 (configuration not stated) | 0% | 4% |
| CCC(Sc1nc2ccccc2[nH]1)C(=O)Nc1ccc(NC(C)=O)cc1 (configuration not stated) | -11% | -22% |
| O=c1[nH][nH]c(-c2ccccc2O)c1C(C[N+](=O)[O-])c1cccc(Cl)c1 (configuration not stated) | -3% | i |
| C[C@H](CO)N1C[C@H](C)[C@@H](CN(C)C(=O)c2ccc(F)cc2)Oc2cc(Br)ccc2S1(=O)=O | -26% | 0% |
| O=C(c1cnccn1)N(c1ccccc1)C1(C(=O)NC2CCCCC2)CCCCC1 | -17% | i |
| COc1ccc(N=Nc2ccc(O)c(P(=O)(c3ccccc3)c3ccccc3)c2)cc1 | 1% | i |
| CCOC(=O)c1ccc(NC(=O)c2nc[nH]c2C(=O)N2CCc3ccccc3C2)cc1 | -11% | -21% |
| Cn1cc(S(=O)(=O)NCc2ccc(Cl)cc2)c(=O)n(C)c1=O | -10% | i |
| Cc1cccc(C(=O)N2CCNC(=O)C2CC(=O)Nc2ccc(F)cc2)c1 (configuration not stated) | 15% | 8% |
| O=C1CC(c2cccc(Cl)c2)CC(O)=C1C=Nc1ccccc1 (configuration not stated) | -6% | i |
| CCn1c(SCC(=O)NNC(=O)c2ccccc2)nnc1-c1ccco1 | -9% | -5% |
| CN(C)c1ccc(NC(=S)c2ccccn2)cc1 | -18% | -24% |
| O=C(CSc1nnc(-c2ccccn2)o1)Nc1ccccc1C(F)(F)F | -5% | -5% |
